YopH inh: YopH (Yersinia) phosphatase inhibition; fluorescence Ex485/Em525; inhibition, %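 (about 10 µM by stock and volumes)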; 140,000 compounds, 0.16% hits;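 active means inhibition of 50% or more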;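 further: controls were vehicle for no effect and minimum signal wells for full effect; inactives centre near -20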
Arbovirus inh: antivirals against arbovirus infection; inhibition, % at 10 µM; 200,000 compounds, 0.37% hits; arbovirus infection cell-based antiviral screen;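 active means inhibition from about 30%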;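 further: bluetongue infection of BSR cells; cell survival read as ATP light after 72 h; 0% = infected wells without compound and 100% = uninfected wells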
Mtb growth: M. tuberculosis H37Rv growth inhibitors, H37Rv strain (AID 1626) | 220,000 compounds, 0.95% hits | inhibition, % at 10 µM, or IC50 in µM where a hit was titrated | M. tuberculosis H37Rv growth inhibition; higher % means a stronger effect;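 active means confirmed in a dose series; inconclusive means inhibition above 80% but not taken into the dose series; inactive means below 80% or under 30% at every dose of the series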;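 further: bacteria incubated seven days before Alamar blue readout; 0% = bacteria only wells and 100% = bacteria with antibiotic wells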
Mtb betalactam: beta-lactam sensitization of Mtb H37Rv | M. tuberculosis H37Rv growth with meropenem, percent inhibition; hits of this screen are not shown here | inhibition, % at 25 µM | 330,000 compounds, 0.27% hits | AID 434955;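 active means about 74% or more and at least 40 points above the plate without the antibiotic, then above 30% in a dose series; inconclusive means first-round hits that could not be retested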;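 further: growth measured after seven days incubation then overnight dye step; 0% = bacteria only wells and 100% = bacteria with antibiotic; twin plates without the antibiotic show which effects depend on it; some results filed as inactive read as strong as hits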
RecA intein inh: blocks M. tuberculosis RecA intein splicing. 290,000 compounds, 0.75% hits. P9WHJ3. cell-free RecA intein splicing, fluorescence. inhibition, %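 (about 9 µM by stock and volumes)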; in the data active means inhibition above about 30%; inconclusive means no clear call, values can overlap the other calls;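 further: 0% = vehicle wells and 100% = reference inhibitor control wells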
Target sequence (P9WHJ3 whole entry, looked up): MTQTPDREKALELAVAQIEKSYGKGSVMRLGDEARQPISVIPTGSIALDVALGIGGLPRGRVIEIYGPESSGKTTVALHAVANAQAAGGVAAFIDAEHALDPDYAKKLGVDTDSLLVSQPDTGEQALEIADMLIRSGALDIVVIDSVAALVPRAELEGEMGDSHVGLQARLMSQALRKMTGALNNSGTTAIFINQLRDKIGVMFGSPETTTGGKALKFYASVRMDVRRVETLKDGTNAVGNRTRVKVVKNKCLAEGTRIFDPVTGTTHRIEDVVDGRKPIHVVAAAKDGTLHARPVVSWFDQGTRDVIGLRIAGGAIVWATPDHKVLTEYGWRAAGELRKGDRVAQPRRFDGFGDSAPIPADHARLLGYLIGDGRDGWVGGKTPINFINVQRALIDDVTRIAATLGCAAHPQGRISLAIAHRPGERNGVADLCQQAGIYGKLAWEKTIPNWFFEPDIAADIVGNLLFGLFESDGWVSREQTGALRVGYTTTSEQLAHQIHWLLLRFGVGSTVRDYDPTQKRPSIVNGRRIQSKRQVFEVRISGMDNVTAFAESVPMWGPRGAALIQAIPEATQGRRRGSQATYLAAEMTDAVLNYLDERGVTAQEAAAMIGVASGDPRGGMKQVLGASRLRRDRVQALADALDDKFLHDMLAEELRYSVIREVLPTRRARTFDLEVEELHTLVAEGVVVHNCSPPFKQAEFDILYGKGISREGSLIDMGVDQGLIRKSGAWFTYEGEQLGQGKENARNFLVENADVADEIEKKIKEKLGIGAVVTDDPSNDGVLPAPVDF
Arbovirus inh repeat: recorded beside Arbovirus inh, whose call it bears; inhibition, %; measured here: 10K subset replicate screen; many hits read low in the repeat;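 first of two repeat runs on a subset; 0% = infected and 100% = uninfected wells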
* = called active by the depositor; ? = inconclusive; . = no result given. This is a subset; the hit share may differ from the screen's.

SMILES	YopH inh	Arbovirus inh	Mtb growth	Mtb betalactam	RecA intein inh	others
Cc1cc(C)cc(C(=O)N2CC(C)SC2=Nc2cccc(S(=O)(=O)N(C)C)c2)c1 (stereo not given)	-26	4	2%	6	5.4
COc1cccc(CN(C)CC(=O)NCc2ccc(F)cc2)c1OC	.	.	.	-7	-0.1
CCCCn1c(CN2CCN(C(=O)c3ccco3)CC2)nc2c1c(=O)n(C)c(=O)n2C	-23	-1	-2%	1	-1.9	Arbovirus inh repeat=1
O=S(=O)(Nc1ccc(N2CCCCC2)cc1)c1ccc(F)cc1	.	.	3%	-11	1.3
Cc1c(CCC(=O)NCCC(=O)O)c(=O)oc2cc3occ(-c4ccccc4)c3cc12	.	.	.	-2	-1.4
COC(=O)c1cccc(S(=O)(=O)N2CCC(n3nnc4cc(F)ccc43)CC2)c1	-18	-17	-6%	-6	-1.2
CC(C)C[C@H](NC(=O)c1nc[nH]c1C(=O)N[C@@H](CC(C)C)C(=O)OC(C)(C)C)C(=O)OCc1ccccc1	.	.	.	-1	-0.7
COc1cccc(NC(=O)c2cccnc2)c1	-46	1	-2%	-3	-0.8	Arbovirus inh repeat=4
CC(C)CNc1nc(S(=O)(=O)c2ccccc2)c(Cl)s1	.	-1	10%	-7	4.9
CCn1c(SCc2nc3ccccc3c(=O)[nH]2)nnc1C(C)NC(=O)c1ccccc1F (stereo not given)	.	11	6%	-10	-2.4
O=c1c2[nH]c3ccc(F)cc3c2ncn1CCCn1ccnc1	-12	-16	5%	-20	2.3
COc1ccc(NC(=O)Cc2ccccc2F)cn1	.	3	-2%	11	1.8
COc1cc(C=NCC2OCCc3ccccc32)cc(OC)c1 (stereo not given)	-18	2	-5%	10	2.8
COc1nnc(-c2ccc(N3CCOCC3)c(NC(=O)c3ccco3)c2)c2ccccc12	-22	5	7%	70	2.0
Cc1ccc(NC(=O)[C@@H]2CCCN2S(=O)(=O)c2ccccc2F)cc1	.	.	1%	-1	2.1

Reprinted from the part before: 7 entries; new compounds follow.
SMILES	YopH inh	Arbovirus inh	Mtb growth	Mtb betalactam	RecA intein inh	others
CC(C)CNc1nc(S(=O)(=O)c2ccccc2)c(Cl)s1	.	-1	10%	-7	4.9
CCn1c(SCc2nc3ccccc3c(=O)[nH]2)nnc1C(C)NC(=O)c1ccccc1F (stereo not given)	.	11	6%	-10	-2.4
O=c1c2[nH]c3ccc(F)cc3c2ncn1CCCn1ccnc1	-12	-16	5%	-20	2.3
COc1ccc(NC(=O)Cc2ccccc2F)cn1	.	3	-2%	11	1.8
COc1cc(C=NCC2OCCc3ccccc32)cc(OC)c1 (stereo not given)	-18	2	-5%	10	2.8
COc1nnc(-c2ccc(N3CCOCC3)c(NC(=O)c3ccco3)c2)c2ccccc12	-22	5	7%	70	2.0
Cc1ccc(NC(=O)[C@@H]2CCCN2S(=O)(=O)c2ccccc2F)cc1	.	.	1%	-1	2.1
CCc1cnccc1CCC(=O)Nc1ccccc1C	.	.	.	-4	0.5
CCc1ccc(CC)c(S(=O)(=O)Nc2ccc(O)c(C(=O)O)c2)c1	-63	-3	5%	26	0.8
O=C1S/C(=C\C=C\c2ccco2)C(=O)N1c1ccc(O)cc1	-21	13	7%	78	5.6
Cc1cc(Cl)ccc1OCC(=O)N/N=C1\CCCc2ccccc21	-14	5	-5%	-11	.
CCOC(=O)N1CCC(C(=O)NNC(=O)c2ccc(Cl)cc2Cl)CC1	.	.	.	-5	-1.1
CCOC(=O)CC(=O)CSc1nc2c(cc1C#N)CCCCC2	-41	3	2%	3	-9.0
COc1cc(NC(=O)C2CC(=O)N(CCc3ccccc3)C2)cc(OC)c1 (stereo not given)	.	.	.	-1	1.8
CC(C)(C)c1ccccc1OCC(O)CN1CCN(c2ccccn2)CC1 (stereo not given)	.	.	.	8	3.9
Cc1cccnc1NC(=S)NC(=O)c1cncc(Br)c1	-27	-3	4%	.	1.9
Cc1cccc(C(CC(=O)N2CCCC2)c2ccccc2)c1O (stereo not given)	-7	-6	-7%	-18	1.6
COc1ccc(/C=N/NC(=S)Nc2ccccc2)cc1COc1ccc(F)cc1	-3	-12	4%	-1	0.7
COCCn1nnnc1CN1CCOCC1	-35	7	-3%	12	0.0
COc1cccc(NC(=O)CCC2CCN(C(=O)c3cccc(NC(C)=O)c3)CC2)c1	.	.	.	-4	2.0
Cc1ccc(/C=N/NC(=O)Cc2c(F)cccc2Cl)s1	.	.	.	12	0.9
O=C(O)c1ccc(NC2=C(N3CCOCC3)C(=O)c3ccccc3C2=O)cc1	76*	-10	3%	9	4.2
CC(C)OC(=O)CC(=O)CSc1nc2c(cc1C#N)CCCCCC2	10	-5	-10%	-2	-7.1
Cc1ccc(S(=O)(=O)NNC(=O)c2ccncc2)cc1[N+](=O)[O-]	.	.	.	-9	-5.1
COc1ccc(S(=O)(=O)N2CCCCCC2)cc1C(=O)OCC(=O)Nc1cc(C)on1	.	2	-5%	1	-2.4
Cc1ccc(Nc2ccc(-n3ccnc3)nn2)cc1C	-19	5	-2%	25	2.0
Cc1ccc2c(C)c(C(=O)N(Cc3ccncc3)CC3CCCO3)oc2c1C (stereo not given)	.	.	.	2	5.0
Cn1nnc2c[n+](CC(=O)c3ccc4ccccc4c3)cc(Br)c21	.	.	-10%	-2	4.7
COc1ccc(-c2ccc(=O)n(CC(=O)Nc3cccc(O)c3)n2)cc1OC	-4	-9	-7%	?	-3.8
O=C(OCCN1C(=O)c2ccccc2C1=O)c1cccc(OC(F)F)c1	-22	2	1%	-1	-3.4
COC(=O)c1cn(C(=O)c2ccc(OC)c(OC)c2)c2ccccc12	.	.	.	4	3.2
O=C(Sc1nnnn1C1CCCCC1)c1cccs1	-29	15	1%	5	4.7
CNC(=S)N/N=C/c1ccccc1Cl	-16	-14	6%	2	-2.7
CC(NC(=O)Cn1cnnn1)c1cccc(C(F)(F)F)c1 (stereo not given)	.	.	.	-4	-4.9
CCOCCn1c2ccccc2c2nc3ccccc3nc21	.	.	.	46	1.2
CN1C/C(=C\c2ccc(N3CCOCC3)cc2)C(=O)/C(=C/c2ccc(N3CCOCC3)cc2)C1	-24	-3	4%	6	-0.6
Cc1ccc(S(=O)(=O)N2CCOC23CCN(C(=O)C(=O)NCCC(C)C)CC3)cc1	.	.	.	-2	2.6
CCN(CC(=O)Nc1cccc(F)c1)CC(=O)Nc1ccccc1OC	.	.	.	2	2.6
CC(C)Cc1nc(SCC(=O)NCc2ccccc2)n[nH]1	-26	4	9%	-6	1.6
O=C(COc1ccccc1)NCC(=O)N/N=C/c1cc(Br)ccc1OCc1ccccc1	-8	7	5%	4	8.0
COc1ccc(C2N(c3cc(Cl)ccc3OC)C(=O)C3CCCN32)c(OC)c1 (stereo not given)	-22	-4	-15%	-2	2.0
COc1ccc(C(=O)CSc2ncn[nH]2)cc1OC	-17	7	-9%	-6	-0.5
CC(=O)Nc1ccc(S(=O)(=O)NCc2ccc(C(=O)NCc3ccc(Cl)cc3)cc2)cc1	-13	3	0%	-4	4.5
Cc1cc(OC(C)C(=O)N2C[C@H]3C[C@@H](C2)c2cccc(=O)n2C3)c2c(C)c(C)c(=O)oc2c1 (stereo not given in full)	.	.	.	-5	3.8
CCOC(=O)c1c(NC(=O)CN(C)C2CCN(C)CC2)sc(C(=O)Nc2ccccc2)c1C	.	-28	7%	6	0.7
NCCNc1ccc([N+](=O)[O-])c(NC2CC2)c1	-19	8	5%	1	2.5
CCOCCCNC(=O)C(c1ccc(OC)cc1)N(Cc1ccc2c(c1)OCO2)C(=O)CNC(C)=O (stereo not given)	4	-3	-10%	1	-2.0	Arbovirus inh repeat=-2
COc1cccc(N2CCN(c3c(C#N)c(C(F)(F)F)nn3C)CC2)c1	6	4	2%	-11	5.3
CC1Sc2ccc(S(=O)(=O)CCC(=O)NC3CCCC(C)C3C)cc2NC1=O (stereo not given)	.	.	.	-5	-0.7
Cc1ccc(S(=O)(=O)N2CCCOC2CNC(=O)C(=O)NCc2ccccn2)cc1 (stereo not given)	.	.	.	4	2.0
CC(C)CCn1c(=O)c2sccc2n2c(CCCC(=O)N3CCC(N4CCCCC4)CC3)nnc12	.	.	.	0	-3.6
CCOc1ccc(CCNC(=O)COC(=O)Cn2cnc3c2c(=O)n(C)c(=O)n3C)cc1OCC	.	.	.	-9	-4.0
c1ccc(Cc2c[nH]c3ccccc23)cc1	.	.	.	-11	3.7
CC(=O)Nc1cccc(NC(=O)CSc2ccc(-c3ccco3)nn2)c1	.	.	.	-14	4.6
CCOC(=O)N1CC=C2C(C#N)=C(N)C(C#N)(C#N)[C@H](c3cccs3)[C@H]2C1	10	-3	-5%	-3	7.7
CN(C)c1ccc(CN2CCCC(O)C2)cc1 (stereo not given)	-34	-13	-15%	0	-2.0
NC(=O)CN1CCN(Cc2ccc3c(c2)OCO3)CC1	.	.	.	-3	-2.2
OCCNCC(O)Cn1ccc2ccccc21 (stereo not given)	-24	2	-12%	-1	-1.3
Cc1ccc(C(=O)Nc2cnc3ccccc3c2)cc1	11	-6	5%	7	1.6
O=C(NCc1cccnc1)c1ccc(S(=O)(=O)N2CCCCC2)cc1	-20	-6	-8%	3	0.0
COc1ccccc1-c1nc(SC)n[nH]1	.	-2	-11%	-4	0.1
Cc1ccc(O)c(Sc2cc(C)ccc2O)c1	-25	-9	4%	4	2.1
CCOC(=O)c1cc(S(=O)(=O)NC2CCN(C(=O)OCC)CC2)cn1C	-23	10	3%	-2	3.7
O=C(CCCCC(=O)Nc1ccc(F)cc1)Nc1ccc(F)cc1	.	.	.	-6	1.3
CCN(CCN(C)C)C(=O)Cn1ncc2c1-c1cc(C)ccc1OC2	-34	-2	-3%	?	0.2	Arbovirus inh repeat=5
COc1ccc(CNCCC(c2ccccc2)c2ccc(OC(C)C)cc2)cc1OC (stereo not given)	.	.	.	66	8.2
CCC(=O)c1c(NC)cc(C)oc1=O	.	-2	0%	-2	-0.7
Next records follow.
SMILES	YopH inh	Arbovirus inh	Mtb growth	Mtb betalactam	RecA intein inh	others
COc1ccc(/C=C2\CN(Cc3ccccc3)C/C(=C\c3ccc(OC)c(O)c3)C2=O)cc1O	.	.	.	5	-2.0
CCOC(=O)N1CCN(Cc2nc(N)nc(Nc3ccc(C)cc3C)n2)CC1	.	-3	-6%	-3	-0.7
CC(C)CCNC(=O)C1CCCCN1S(=O)(=O)c1ccc(F)cc1 (stereo not given)	-21	3	0%	-3	-2.3
CC(C)(C)NC(=O)/C(=C/c1ccco1)c1ccccc1	-15	5	3%	0	-5.8
CCN(CC(=O)NCc1cccs1)C(=O)/C=C/c1ccc(OC)cc1OC	.	.	.	-5	0.4
COC(=O)CN1C(=O)[C@H]2[C@@H](c3ccc(C)o3)N3C(=O)CN(CCO)C(=O)[C@@]3(C)[C@H]2C1=O	.	.	.	-7	0.7
CC(=O)N1c2ccccc2S(=O)(=O)c2ccccc21	.	.	.	-6	0.5
Cn1c(=O)c(C(=O)Nc2ncccn2)c(O)c2ccccc21	-27	6	1%	1	0.2	Arbovirus inh repeat=1
COCCNC(=O)C(c1ccc(C)cc1)N(C(=O)CCC(=O)Nc1ccccn1)c1ccccc1C (stereo not given)	.	.	.	-6	2.6
CCc1nnc(/N=C/c2c(O)n(-c3ccc(Cl)cn3)c(=O)c3ccccc23)s1	-35	0	7%	6	-19
COCCN(Cc1cc2cccc(C)c2n2nnnc12)C(=O)C(F)(F)F	-20	-2	-1%	?	-28
COC(=O)CCC(=O)OC1(C)C(=O)C=C2C=C(C3CC3)N(CC3CC3)C=C2C1=O (stereo not given)	.	.	-17%	8	11
Cc1nc(SC(C)C)[nH]c(=O)c1Cc1ccccc1	-32	-2	5%	-7	0.2	Arbovirus inh repeat=-3
COCCNC(=O)COC(=O)c1[nH]c(C)c(C(C)=O)c1C	-14	14	-9%	5	1.2
CN(C(=O)c1ccc2c(=O)n3c(nc2c1)CCCCC3)c1ccccc1Cl	.	.	2%	-8	4.4
Clc1ccc(Nc2nc(-c3cccs3)cs2)nc1	-18	-1	17%	88	3.5
CCn1cc(C(=O)NCCCOC)c(=O)c2cc(S(=O)(=O)N(C)C3CCCCC3)ccc21	-21	-16	-6%	-3	4.7
CC(=O)NC(=S)Nc1cccc(S(=O)(=O)NC2=NCCC2)c1	-25	1	-8%	-1	-0.2
COc1ccc2nccc(/C=C/c3ccnc4ccc(OC)cc34)c2c1	.	.	-5%	-2	-0.3
CCc1ccc(OCC(=O)N/N=C(\C)c2ccc(O)cc2O)cc1	.	-26	0%	0	-1.6
COc1ccc(-c2nc(CS(=O)CC(=O)NCCCN3CCCC3)c(C)o2)cc1OC (stereo not given)	-39	4	-6%	-5	2.5

High-throughput results from PubChem.
